# Compound activity (PubChem)
# Menin MLL FP FL – inhibitors of human menin-MLL interaction, wild-type MLL peptide | 290,000 tested, under 10 active | Fluorescence polarization, fluorescein-MLL peptide displacement from menin | FP activity change, % at 61.4 µM; inconclusive = falling polarisation curve, or a change in total fluorescence; inactive = total fluorescence flat and polarisation flat or rising; no compound was filed as active; the % refers to the polarisation; negative = inhibition;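 note: % of control where 0% means no effect; inhibitors lower the polarisation; unlabelled MLL peptide was the positive control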
# TRPML1 inh – inhibitors of human TRPML1 channel | AID 624415 | activity change, negative = inhibition, % (concentration not given with the values) | Q9GZU1 | 390,000 tested, 0.02% active | TRPML1-inducible cells, Ca2+ dye fluorescence, FDSS; active compounds read low; inhibition of EC80 agonist-evoked calcium signal; in the data active means activity change below about -50%; inconclusive means about -30% to -50%; inactive means above about -30%;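 note: stimulus is agonist 54-4 at its EC80 concentration; % is set by controls: 0 for no effect and ±100 for the full control effect; the text of the record puts the active cut at -80%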
#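 TRPML1-DL cells, Tet-induced overnight (~16 h, 37 °C) at 1,500 cells/well, were loaded with Ca8 no-wash dye plus quencher for 45-90 min at room temperature. Compounds were pinned during FDSS kinetic reading; agonist 54-4 at EC80 (4 uM final) then added.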
# Sfp PPTase inh – blocks B. subtilis Sfp PPTase activity | Biochemical Sfp PPTase activity, qHTS | 310,000 tested, 3.5% active | Potency, µM, inactives show max response, negative = inhibition, hits mostly inhibitors | Q9F4F7; active = well fitted inhibition curve with a large enough effect; inconclusive = small, poorly fitted or top-dose-only effect, or another doubt; inactive = no such curve, though single readings can be large or run the other way;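 note: the enzyme is Sfp with the accession as filed and its product quenches rhodamine fluorescence; potency is the fitted concentration of half-maximal effect; 0% = enzyme reaction without inhibitor and -100% = no enzyme wells; top concentration of the series not given in the record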
#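 Step 1, compound plus 15 nM Sfp-PPTase, 15 min, room temperature. Step 2, add rhodamine-CoA (5 uM) and BHQ-2-YbbR (12.5 uM). Step 3, read 525/598 nm fluorescence at 0 and 30 min.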
# TRPML1 ag – human mucolipin-1 channel agonism; activation, % (concentration not given with the values); TRPML1-expressing cells, Ca2+ dye fluorescence, FDSS; host cell line not named in the record; reference of the full effect not given here; Q9GZU1; AID 624414; 410,000 tested, 0.12% active; in the data active = activation above about 50%; inconclusive = about 30% to 50%; inactive = below about 30%; note: 0% is about no effect; the text of the record puts the active cut at 80%
#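 Calcium fluorescence on an FDSS kinetic reader gave the read-out. Tet-induced TRPML1-DL cells were plated overnight, dye-loaded (Ca8 with quencher, 45-90 min, room temperature, dark), then read 110 s after compound addition, and again 110 s after 4uM final 54-4 (EC80).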
# TRPV1 PAM – enhances activation of the human vanilloid receptor TRPV1 | AID 540277 | 320,000 tested, 0.02% active | Q8NER1 | TRPV1-expressing cells, Fluo-8 calcium influx, capsaicin EC20 potentiation; host cell line not named in the record; control for the full effect not named in the record | potentiation, % at 8.33 µM; active means potentiation above 80%; inconclusive means 30% to 80%; inactive means below 30%; note: 0% is about no effect
# Target sequence (Q8NER1 whole entry, looked up): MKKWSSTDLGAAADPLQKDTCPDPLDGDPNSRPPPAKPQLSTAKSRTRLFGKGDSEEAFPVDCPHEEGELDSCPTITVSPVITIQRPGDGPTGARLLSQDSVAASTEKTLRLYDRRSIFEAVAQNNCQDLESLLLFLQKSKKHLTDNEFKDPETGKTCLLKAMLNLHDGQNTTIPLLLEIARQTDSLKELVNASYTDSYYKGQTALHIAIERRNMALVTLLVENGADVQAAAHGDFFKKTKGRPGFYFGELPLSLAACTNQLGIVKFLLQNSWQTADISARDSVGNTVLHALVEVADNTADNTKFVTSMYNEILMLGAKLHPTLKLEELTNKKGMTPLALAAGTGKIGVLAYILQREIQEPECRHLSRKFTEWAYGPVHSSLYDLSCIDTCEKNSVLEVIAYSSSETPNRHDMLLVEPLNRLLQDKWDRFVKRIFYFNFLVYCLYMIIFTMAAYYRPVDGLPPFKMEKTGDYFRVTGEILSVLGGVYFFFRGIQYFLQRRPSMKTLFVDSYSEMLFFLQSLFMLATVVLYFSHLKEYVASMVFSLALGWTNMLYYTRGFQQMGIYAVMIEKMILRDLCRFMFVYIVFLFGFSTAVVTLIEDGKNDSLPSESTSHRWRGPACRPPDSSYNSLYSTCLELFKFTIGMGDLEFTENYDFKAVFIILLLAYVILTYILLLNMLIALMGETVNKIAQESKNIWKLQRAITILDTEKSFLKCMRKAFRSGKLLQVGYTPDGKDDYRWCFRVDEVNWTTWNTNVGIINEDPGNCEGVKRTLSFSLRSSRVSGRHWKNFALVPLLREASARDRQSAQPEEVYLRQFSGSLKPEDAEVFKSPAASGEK
#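 TRPV1-expressing cells were cultured overnight at 35.5C and loaded with Fluo-8 calcium dye for 40 to 90 min at room temperature. After a 10 s baseline, compound was added and calcium influx was read kinetically for 3 min (ex 480/em 520 nm).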
# PINK1 modulator – PINK1 expression modulation; Potency, µM (top dose mostly 76.6 µM), for the others: top-dose activation (PINK1 increase), usual class: activators; 410,000 tested, 0.2% active; PINK1 immunofluorescence, high-content cytometry, 24 h; active = well fitted activation curve with a large enough effect; inconclusive = small, poorly fitted or top-dose-only effect; inactive = flat fitted curve, though single readings scatter; cell line not stated here;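 note: potency is the fitted concentration of half-maximal effect; % of control where 0% means no effect; nearly all actives have a fitted effect of over 65% in size; a mitochondrial uncoupler was the plate control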
#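 Measures PINK1 amount and localization on or inside mitochondria by immunofluorescence. Stable cells get compounds at 5 concentrations for 24 hours before fixation and staining; CCCP controls included.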
# ClpP mod – qHTS Assay for Activators of ClpP; Potency, µM (top dose mostly 57.5 µM), for inactives: at the top dose activity change, negative = active; AID 651965, 2013; 340,000 tested, 1.9% active; purified B. subtilis ClpP, FRET peptide cleavage, 20 min; active = well fitted falling curve with a large enough effect; inconclusive = small, poorly fitted or top-dose-only effect; inactive = no such curve, though single readings can be large or run the other way; note: potency is the fitted concentration of half-maximal effect; the source files actives as falling curves though it sought activators and does not explain the sign; nearly all actives have a fitted effect of over 65% in size; many hits overshoot -100%
# Target sequence (P80244 whole entry, looked up): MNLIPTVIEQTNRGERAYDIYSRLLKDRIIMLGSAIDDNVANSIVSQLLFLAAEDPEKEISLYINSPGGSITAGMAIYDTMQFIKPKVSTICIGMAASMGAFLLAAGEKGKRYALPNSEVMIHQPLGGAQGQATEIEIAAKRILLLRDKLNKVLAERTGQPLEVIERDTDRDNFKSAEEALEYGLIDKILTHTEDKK
#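 Buffer: 100 mM Tris/HCl pH8, 100 mM KCl, 0.05% low protease BSA, 2.5% glycerol, 0.01% Tween-20. ClpP 10 microg/mL final; 20 min RT; delta FRET normalized to ADEP and DMSO controls.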
# Active calls of the source: *; ? = inconclusive; / = not tested or not shown; & = joins results of further samples; [ ] = remark or other dose.
# Sample of the layout (two entries):
SMILES,Menin MLL FP FL,TRPML1 inh,Sfp PPTase inh,TRPML1 ag,TRPV1 PAM,PINK1 modulator,ClpP mod
Cc1ccc(N2C(=O)C(CN3CCCC3)C2c2ccccc2)cc1 (stereo not drawn),4.6,27.4,18.7%,-0.7,5.3,2.9%,/
CC(C)NC(=O)CCCc1c[nH]c2ccccc12,0.6,10.1,7.6%,2.1,4.1,0.5%,-10.3%

# The whole of this part, from the first entry:
SMILES,Menin MLL FP FL,TRPML1 inh,Sfp PPTase inh,TRPML1 ag,TRPV1 PAM,PINK1 modulator,ClpP mod
Cc1ccc(N2C(=O)C(CN3CCCC3)C2c2ccccc2)cc1 (stereo not drawn),4.6,27.4,18.7%,-0.7,5.3,2.9%,/
CC(C)NC(=O)CCCc1c[nH]c2ccccc12,0.6,10.1,7.6%,2.1,4.1,0.5%,-10.3%
CCOC(=O)c1nnn(-c2nc(OC)nc(N3CCCC3)n2)c1-c1ccccc1,3.3,5.5,-0.2%,0.8,-4.4,-0.5%,1.9%
COC(=O)Cc1cc(=O)n2[nH]c(C)cc2n1,1.9,-3.5,-19.1%,0.2,22.7,0.5%,-7.2%
Cc1cccc(N(C)c2cc(C)nc3ncnn23)c1,-0.2,-1.9,31.3%[activator],0.9,7.0,2.9%,-4.8%
CC(=O)Oc1ccc2c(c1)OC(c1ccccc1)CC21CC(C)(C)NC(=O)N1 (stereo not drawn),1.4,24.7,5.8%,1.0,0.6,2.0%,-1.7%
O=C(c1ccc(Cl)cc1)c1oc2ccccc2c1CS(=O)c1ccc(Cl)cc1 (stereo not drawn),-2.7,-0.7,56.2µM*,-0.2,0.3,18.0%[38.3 µM],-3.2%
O=c1onc(-c2ccc(Cl)cc2)n1Cc1ccc(F)cc1,3.3,24.2,17.0%,0.0,12.1,2.6%,0.7%
O=C(/C=C/c1cccc([N+](=O)[O-])c1)N1CCN(Cc2ccc3c(c2)OCO3)CC1,-0.7,-27.4,4.4%,0.4,-12.0,2.1%,-0.7%
Cc1ccc(NC(=O)CSc2nc3nc(C)c(Cc4ccccc4)c(C)n3n2)cc1,/,5.9,/,1.2,/,1.3%,-17.9%
O=C(COc1ccc(Cl)cc1Br)N1CCN(c2ccccc2)CC1,2.2,4.7,18.7%,-1.4,6.9,10.4%,0.7%
CC(NS(=O)(=O)c1ccc2[nH]c(=O)c(=O)[nH]c2c1)C(=O)O (stereo not drawn),1.5,18.7,11.8%,1.6,0.8,1.9%,0.5%
CC1CN=C(N(C(=S)Nc2ccccc2)c2cccc(C(F)(F)F)c2)S1 (stereo not drawn),0.7,-13.7,-2.1%,1.8,-0.4,-1.2%,/
O=C(CSc1nnc(SCc2ccc(F)cc2)s1)Nc1ccc(C(=O)O)cc1,-1.5,25.1,-1.0%,-0.5,-2.5,2.4%,/
Cc1ccc(C(=O)NNC2CC(=O)N(c3ccc4c(c3)OCCO4)C2=O)cc1 (stereo not drawn),6.1,-4.2,12.0%,-0.2,-2.7,-1.3%,/
O=C(c1ccccc1-c1nc(-c2ccccc2)no1)N1CCCC1,0.0,2.3,3.1%,0.4,5.0,0.7%,1.2%
CC[C@]12c3[nH]c4cc(CCC(=O)N(C)C)ccc4c3CCN1C(=O)[C@@H](CC(=O)NCCc1ccccn1)C[C@@H]2C(=O)N1CCN(C(=O)C2CC2)CC1,/,-5.2,/,-0.7,/,1.7%,0.4%
CCn1cc(C(=O)N2CCCC(N3CCN(c4ccccc4C)CC3)C2)cn1 (stereo not drawn),-2.1,-0.2,9.0%,0.8,4.8,-1.1%,1.8%
Cc1ccc(C)c(NC(=O)Cn2c(=O)n(Cc3ccco3)c(=O)c3ccc(C(=O)NC4CCCC4)cc32)c1,/,-3.0,/,0.7,/,2.7%,-4.0%
Cc1cc2oc(=O)cc(CN3CCCC3)c2cc1C,/,/,/,0.0,/,0.5%,-17.3%
O=C1CC(c2ccccc2)CN1C(=O)c1cccnc1 (stereo not drawn),2.9,-6.1,19.9%,0.8,-0.8,-0.5%,0.7%
CCOc1ccc(NC(=O)CC2SC(N)=NC2=O)c([N+](=O)[O-])c1 (stereo not drawn),0.0,7.5,4.8%,-0.4,5.6,1.3%,-5.7%
O=C(Nc1ccccc1)c1ccc(S(=O)(=O)N2CCCC2)cc1,-3.2,-1.8,11.3%,1.3,-14.9,-3.2%[38.3 µM],-0.9%
COc1cc(S(=O)(=O)Nc2ccccn2)ccc1F,4.8,-4.3,23.2%,-0.2,3.0,1.2%[38.3 µM],?
C[C@H](NC(=O)c1[nH]cnc1C(=O)Nc1ccon1)c1ccccc1,/,-9.6,/,0.6,14.2,-0.1%,-2.1%
CN=C(Nc1ccc(C)c(C)c1)SC1CC(=O)N(c2ccc(OC)cc2)C1=O (stereo not drawn),2.3,12.5,-4.7%,1.7,1.5,1.9%,0.2%
Cc1ccc(S(=O)(=O)CCC(=O)OCC(=O)N2c3ccccc3NC(=O)C2(C)C)cc1,/,-7.3,/,-0.4,-15.2,2.0%,0.7%
CCN(CC)c1c(-c2ccccc2)c2cc(C)ccc2[nH]c1=O,-1.1,11.4,13.8%,2.2,-7.7,4.3%,-17.4%
CC1(C(=O)O)CCN1C(=O)c1cccc(C(F)(F)F)c1 (stereo not drawn),/,29.0,/,-0.3,/,0.2%,-2.5%
Cc1nnc(NC(=O)c2cc(S(=O)(=O)N(C)C)ccc2N2CCCC2)s1,/,-8.5,/,0.4,22.5,0.4%,-2.3%
COc1cccc(CNC(=O)C2CCN(S(=O)(=O)N3CC(C)CC(C)C3)CC2)c1 (stereo not drawn),7.1,-1.4,0.0%,0.2,0.2,/,1.2%
O=C1CC(c2ccccc2)Oc2ccccc21 (stereo not drawn),-2.8,-2.0,-1.6%,1.7,/,1.8%&0.4%,?
C=CCn1c(Cc2cccs2)nnc1SCC(=O)c1ccc2ccccc2c1,2.2,-8.0,-15.9%,3.9,6.4,8.8%[38.3 µM],-0.3%
COc1cc(C(=S)N2CCOCC2)cc(OC)c1OS(=O)(=O)c1ccc(C)cc1,4.2,31.5,56.2µM*,-0.4,7.1,2.5%,0.0%
CCN(CC)S(=O)(=O)c1ccc(N2CCCCC2)c(NC(=O)C2CCN(C(=O)c3ccc(F)cc3)CC2)c1,/,2.8,/,3.1,4.2,-0.9%,/
COc1ccc(Nc2nc3ccc(C)cc3nc2-n2nc(C)cc2C)cc1Cl,/,-10.6,/,-0.2,/,0.4%,-0.2%
CCN1CCN(C(=S)c2ccc([N+](=O)[O-])cc2)CC1,0.5,46.8,12.6µM*,0.4,1.4,1.8%,-1.1%
O=C(Nc1ccccc1-c1nc2ccccc2s1)c1cc(Cl)cc(Cl)c1,/,-4.2,/,-0.5,/,3.8%,0.3%
CCOC(=O)N1CCC(NC(=O)c2cnn(-c3cccc(F)c3)c2-n2cccc2)CC1,/,6.1,/,0.0,/,0.1%,0.7%
Cc1ccc(C)c(NC(=O)C2CC=CCC2C(=O)O)c1 (stereo not drawn),2.3,10.7,27.6%,-0.7,25.7,1.7%,0.8%
C=CCN(C1CCCCC1)S(=O)(=O)c1ccc2c(c1)oc(=O)n2C,2.0,-2.4,-4.3%,1.9,/,-3.2%,-3.3%
CC1(C)CC(NC(=O)CCc2nnc(CCCCc3ccccc3)o2)CCO1 (stereo not drawn),0.9,15.6,-2.7%,0.1,-1.7,0.0%,-1.0%
Cc1c(N=C(N)/N=C(\N)Nc2ccc(Br)cc2)c(=O)n(-c2ccccc2)n1C,-0.9,7.4,8.1%,1.1,-1.5,-0.2%,1.0%
O=C1CCN(C(=O)c2ccc(Cl)cc2)N1,-0.4,4.6,?,0.1,13.6,0.0%,-0.7%
COc1ccc(S(=O)(=O)N2CC(=O)Nc3ccccc32)cc1Cl,0.7,-10.3,6.7%,0.2,-11.7,-0.2%,0.9%
COc1ccc(C(=O)N2CCCCC2c2cc(C(=O)Nc3ccccc3)no2)cc1 (stereo not drawn),/,/,/,-0.3,/,-0.5%,-1.7%
CCN1CCN(C(=O)C2CCC(=O)N(CCCN3CCCC3=O)C2)CC1 (stereo not drawn),-0.3,-5.1,16.0%,-0.5,14.2,-0.1%,0.1%
Cc1cc(C)nc(NS(=O)(=O)c2ccc(NC(=O)C3(c4ccccc4)CCCC3)cc2)n1,1.7,2.7,12.0%,0.1,22.3,-1.1%,-2.2%
Cc1cc(=O)oc2cc(OCC(=O)N3CCN(c4ccc(F)cc4)CC3)ccc12,/,3.3,9.1%,0.3,-4.0,1.6%,-25.7%
Cc1cc(NC(=O)CSc2nc3cc(Cl)ccc3s2)no1,5.5,2.4,8.7%,-0.4,-4.2,0.2%,-3.8%
Cc1cc(C)c(S(=O)(=O)n2cc(C(C)C(N)C(=O)O)c3ccccc32)c(C)c1 (stereo not drawn),/,6.8,/,0.7,-4.0,0.2%,0.6%
COc1ccccc1N1CCN(CCN2C(=O)CC(=C3c4ccccc4-c4ccccc43)C2=O)CC1,/,-5.9,/,0.3,/,-0.6%,0.9%
C=CCNC(=O)c1ccc(OC)cc1OC,-1.3,17.1,4.2%,0.0,7.8,0.9%,-0.4%
Cc1[nH]nc(Sc2ccccn2)c1[N+](=O)[O-],-2.2,2.5,8.6%,-0.3,-11.2,-0.2%,2.1%
C[C@H](C[C@H](O)[C@H]1OC1(C)C)C1=C2C[C@H](O)C3[C@@]4(C)CCC(=O)C(C)(C)C4CC[C@]3(C)[C@@]2(C)CC1 (stereo partly drawn),/,-6.6,/,-0.1,/,3.1%,3.1%
O=C(Nn1c(C2CCC2)nc2ccccc2c1=O)C1CCC1,2.4,59.8,9.9%,-0.5,-3.0,-5.4%[38.3 µM],-2.4%
CCOC(=O)c1c(NC(=O)c2nc(SCC)ncc2Cl)sc(C(C)=O)c1C,/,0.4,/,0.6,/,0.2%,-2.1%
Fc1ccc(-n2c(-c3cc(C4CC4)[nH]n3)n[nH]c2=S)cc1Cl,0.5,9.2,?,0.1,-7.9,1.1%,/
O=C(c1noc2c1CCCC2)N1CCN(c2ccc(F)cc2)CC1,-4.5,-5.8,6.1%,0.1,-20.9,4.1%[38.3 µM],-0.6%
